AmpC inh no det: AmpC beta-lactamase inhibition, detergent-free assay. AmpC nitrocefin hydrolysis, absorbance 480 nm, no detergent; potencies from a single point are estimates. Potency, µM (series often up to 28.7 µM), inactives show top-dose activity change, negative = inhibition. 71,000 tested, 1.8% active; active = falling curve, for most hits resting on a single point; inconclusive = weak or doubtful change; inactive = flat or rising curve; also: % of control where 0% means no effect; about half of the hits show no inhibition at the top dose; a quarter of the inactives give rising signals
Target sequence (P00811 whole entry, looked up): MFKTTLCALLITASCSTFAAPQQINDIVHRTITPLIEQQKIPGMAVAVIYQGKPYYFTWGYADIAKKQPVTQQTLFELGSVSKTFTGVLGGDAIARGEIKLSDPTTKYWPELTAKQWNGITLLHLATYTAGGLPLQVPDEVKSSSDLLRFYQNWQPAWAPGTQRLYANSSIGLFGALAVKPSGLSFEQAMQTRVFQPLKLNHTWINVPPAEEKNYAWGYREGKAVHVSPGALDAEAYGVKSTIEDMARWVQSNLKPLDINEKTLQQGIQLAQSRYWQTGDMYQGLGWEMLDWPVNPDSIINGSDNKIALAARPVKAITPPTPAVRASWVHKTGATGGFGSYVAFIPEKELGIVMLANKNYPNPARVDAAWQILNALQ
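AmpC in 20 mM phosphate buffer pH 7.0 was preincubated 15 min at room temperature with compounds. Nitrocefin (800 uM stock) was then added and hydrolysis followed at 480 nm every 20 s for 4 min.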
Starred values were filed as active, the others as inactive; ? = inconclusive; [ ] = dose if it differs, or a comment. Potency is read from the fitted curve at half-maximal effect.

nr	mol	AmpC inh no det
1	CC(C)CN1CCCC2(CCN(C(=O)c3cccn3C)CC2)C1	88.7%
2	CC1CCN(C(=O)c2ccc(C(=O)N3CCC(C)CC3)cc2)CC1	13.2%
3	N#Cc1ccccc1CSc1nc(N2CCCCC2)nc(N2CCCCC2)n1	-13.8%
4	O=C1c2cccc3c(Cl)ccc(c23)C(=O)N1O	-8.3%
5	CC(Cc1ccccc1)C(=O)N[C@@H](CO)Cc1ccccc1 (stereo partly drawn)	10.4%
6	C[C@@H](C(=O)O)[C@@H]1C[C@@]1(C)[C@@H](NC(=O)OCc1ccccc1)c1ccccc1	3.6%
7	COc1ccc(-c2nnc(SCC(=O)c3ccco3)n2-c2ccccc2)cc1	19.4%
8	COc1ccccc1CNS(=O)(=O)c1c(C)noc1C	-1.7%
9	CCC(=O)N1CCc2cc(Br)cc(S(=O)(=O)NCc3ccco3)c21	-1.8%
10	NC[C@@H]1O[C@H](O[C@H]2[C@H](O)[C@@H](O[C@H]3[C@H](O)[C@H](N)C[C@H](N)[C@H]3O[C@@H]3O[C@H](CO)[C@@H](O)[C@H](O)[C@@H]3N)O[C@H]2CO)[C@@H](N)[C@H](O)[C@@H]1O	-0.8%[12.8 µM]
11	O=C(NCC(c1cccnc1)N1CCN(c2ccccc2F)CC1)Oc1ccccc1 (stereo not drawn)	86.4%
12	COc1ccccc1NC(=O)c1cc2n(n1)C(C(F)(F)F)CC(c1ccc3c(c1)OCO3)N2 (stereo not drawn)	25.6%
13	O=C1CC(N(O)c2ccccc2)C(=O)N1c1cc(Cl)cc(Cl)c1 (stereo not drawn)	-10.1%
14	CCOC(=O)CCCNC(=O)COC(=O)CCC(=O)c1ccc(F)cc1	19.6%
15	CCOC(=O)C(NC(C)=O)(NS(=O)(=O)c1ccccc1)C(F)(F)F (stereo not drawn)	-11.6%
16	CCc1ccc2[nH]cc(C(=O)N3CCCCCC3)c(=O)c2c1	-12.8%
17	Cc1cccc(CN2CCN(CC(=O)NCCCN3CCCC3=O)C2=O)c1	7.0%
18	Cc1cc(C)c2c(n1)nn1c(NCCCn3ccnc3)cc(C)nc21	22.2%
19	O=CC(=O)c1ccccc1	-6.1%
20	COc1ccccc1N1CCN(C(=O)CCNS(=O)(=O)c2ccc3c(c2)CCC(=O)N3)CC1	50.2%
21	CSc1nnc(CNC(=O)c2ccccc2)n1-c1cccc(C)c1	24.1%
22	COc1ccc(C)cc1S(=O)(=O)N(CC(N)=O)Cc1ccccc1	20.7%
23	C=CCOc1ccccc1/C=N/O	-17.1%
24	COc1ccc(OC)c(NC(=O)C2CCN(c3cc(-c4ccccc4)nc4ncnn34)CC2)c1	87.4%

3 compounds already listed, sorted by heavy-atom count, smallest number first.
nr	mol	AmpC inh no det
16	CCc1ccc2[nH]cc(C(=O)N3CCCCCC3)c(=O)c2c1	-12.8%
13	O=C1CC(N(O)c2ccccc2)C(=O)N1c1cc(Cl)cc(Cl)c1 (stereo not drawn)	-10.1%
18	Cc1cc(C)c2c(n1)nn1c(NCCCn3ccnc3)cc(C)nc21	22.2%

(cont.)
nr	mol	AmpC inh no det
25	Cc1ccc(C(=O)N(CN2CCCC2=O)c2ccc(F)cc2)cc1	26.4%
26	CCOC(=O)c1nc2sc3c(c2c(=O)[nH]1)CCCC3	-7.8%
27	Cc1ccc(-n2ncc3c(NCc4ccccn4)ncnc32)c(C)c1	19.9%
28	Cn1nc(-c2ccc(Cl)cc2)c2cc(C(=O)N3CCC(N4CCCCC4)CC3)sc21	43.5%
29	COC(=O)c1ccc(CNC(=O)CSc2nnc(COc3ccccc3)n2C)o1	29.5%
30	CCN(CC)S(=O)(=O)c1ccc(-c2nnc(SCC(=O)N3CCc4ccccc43)o2)cc1	7.4%
31	Cn1c(Cn2c(=O)sc3ccccc32)nnc1SCC(=O)Nc1ccccc1F	27.3%
32	Cc1cc(Oc2ccccc2)nc(N)n1	3.0%
33	COc1ccc(C(=O)/C=C/Nc2cc(C)on2)cc1	-9.7%
34	CN1CCN(C(c2cccc(C(F)(F)F)c2)c2nnnn2C(C)(C)C)CC1 (stereo not drawn)	10.1%
35	O=C(c1ccccc1)c1ccc(N2CCCC2)cc1	-2.8%
36	CCCOc1ccc(Cn2c(=O)oc3ccc(C)cc32)cc1OC	46.8%
37	Cn1c(=O)c2c(nc(CN3CCc4ccccc4C3)n2Cc2ccccc2F)n(C)c1=O	107.6%
38	Cc1ccccc1-n1nnnc1SCc1ncc(-c2ccccc2)o1	-0.1%
39	COc1cc2[nH]c(=O)n(Cc3ccc(C(=O)NCC4CCCO4)cc3)c(=O)c2cc1OC (stereo not drawn)	40.0%
40	O=C(Nc1ccccc1)N(CCCN1CCOCC1)Cc1cccs1	4.4%
41	CC(C)c1nnc(NC(=O)CCC(=O)NCc2ccco2)s1	-5.9%
42	N#Cc1cccc(-c2nc3cnc(Nc4ccccc4)nc3n(C[C@H]3CCCO3)c2=O)c1	-9.9%
43	COc1cccc2cc(C(=O)N3CCc4ccccc4C3)c(=O)oc12	23.2%
44	COc1cc(S(=O)(=O)NCCc2ccc3c(c2)OCO3)ccc1-n1cnnn1	7.6%
45	COc1ccc(OC)c(S(=O)(=O)n2ccnc2)c1	7.7%
46	COc1ccc2[nH]c3ccc(OC)cc3c2c1	-11.5%
47	O=C(c1cc2ccccc2oc1=O)N1CCN(C(=O)C2CCCO2)CC1 (stereo not drawn)	-4.0%
48	O=C(Nc1ccc(N2CCOCC2)c(F)c1)c1ccncc1	-0.6%
49	O=c1[nH]c2ccsc2c(=O)n1-c1ccc(F)cc1	2.7%
50	O=C(Cn1cccc1C(=O)c1ccccc1)NCc1ccc2c(c1)OCO2	-2.3%
51	O=C(O)C[C@H](S)C(=O)O	7.6%[5.75 µM]
52	CC(=O)CC(=O)NC1C2CC3CC(C2)CC1C3 (stereo not drawn)	9.1%
53	O=C(NC1CCCCCCC1)C1CCN(S(=O)(=O)N2CCC3(CC2)OCCO3)CC1	57.4%
54	CCC(=O)Oc1c(S(=O)(=O)c2ccc(C)cc2)c(C)nn1C(C)(C)C	53.2%
55	O=C(CN1CCC(NC(=O)Nc2ccccc2-c2ccccc2)CC1)NCc1ccco1	34.4%
56	CN(C)C(=O)c1ccc(-c2nc(N3CCOCC3)c3ccccc3n2)cc1	99.8%
57	O=C(Nc1ccccc1N1CCN(C(=O)c2ccccc2)CC1)c1ccc2c(c1)OCO2	58.4%
58	Cc1ccc(S(=O)(=O)C2(C(=O)N(C)C3CCCCC3)CC2)cc1	45.0%
59	CCOC(=O)c1[nH]c(C)c(C(=O)NC2CCN(C(=O)OCC)CC2)c1C	13.0%
60	CCc1ccc2[nH]c(=O)c(CN(CCN3CCCC3)C(=O)NC3CCCCC3)cc2c1	45.3%
61	O=C(c1cccs1)N(Cc1ccco1)C1CCS(=O)(=O)C1 (stereo not drawn)	1.0%
62	CCOc1ccc(NC(=O)c2ccc(S(=O)(=O)N(C)C)cc2)cc1	16.2%
63	O=C(O)C(Oc1nc(=S)[nH]c(=S)[nH]1)(c1ccc(Cl)cc1)c1ccc(Cl)cc1	-6.1%[5.75 µM]
64	Oc1ccc(Oc2ncc(Cl)cc2Cl)cc1	-5.5%
65	Cc1cccc(C)c1N(CC(=O)N1CCN(C)CC1)S(C)(=O)=O	-4.5%
66	Cn1c(SCC(=O)NC(C)(C)C)nc(O)cc1=O	0.7%
67	COc1ccc(C2C=C(c3ccccc3)Nc3ncnn32)cc1 (stereo not drawn)	14.0%
68	Cn1c(SCC(=O)c2ccc(-c3ccccc3)cc2)nnc1-c1ccco1	-21.9%
69	CCCSc1n[nH]c(NC(C)=O)n1	5.6%
70	CCNC(=O)c1ccc(NS(=O)(=O)c2ccccc2)cc1	-8.8%
71	Cn1c(=O)c2c(nc(NCc3ccco3)n2C)n(C)c1=O	-3.2%
72	COc1cc(OC)cc([C@H](CNc2ncnc3c2ncn3[C@@H]2O[C@@H](CO)[C@H](O)[C@@H]2O)c2ccccc2C)c1	156.3%
73	COc1ccc(N(CC(=O)NCC2CCCO2)S(=O)(=O)c2c(C)noc2C)cc1 (stereo not drawn)	12.0%
74	O=C(NCCNCCO)c1c(O)c2cccc3c2n(c1=O)CCC3	24.1%
75	COC1CCCCC1Nc1cc(C)ccc1C (stereo not drawn)	-9.1%
76	CCN1CCN(C(=O)C2=C(C(=O)O)CCCC2)CC1	-10.9%
77	COc1ccccc1CNc1nc(-c2c(C)noc2C)nc2ccccc12	-13.1%
78	Cc1ccc(CNC(=O)CCS(=O)(=O)c2ccc(Br)s2)o1	-5.6%
79	Cc1ccc(Nc2nc(C)cc(C)n2)c(Br)c1	20.1%
80	O=C(O)Cn1nc(-c2ccccc2)c2ccccc21	7.8%
81	COc1cc(N2C(=O)NC3CC2(C)Oc2ccccc23)cc(OC)c1OC (stereo not drawn)	28.6%
82	O=C(Nc1nnc(C2CCCCC2)s1)c1ccc(Br)s1	-0.5%
83	CCOC(=O)N1CCN(S(=O)(=O)c2cc(Cl)c(OC)cc2Cl)CC1	54.3%
84	O=C(Nc1ccc2oc(-c3ccccc3Cl)nc2c1)c1cncc(Br)c1	-19.9%

Other structures follow:
nr	mol	AmpC inh no det
85	CCOC(=O)N1CCN(CC(=O)c2ccc3c(c2)CCN3C(C)=O)CC1	100.8%
86	CCOC(=O)c1ccc(NC(=O)CN2CCN(c3ccccc3)CC2)cc1	59.6%
87	Cc1cc(NC(=O)CSc2nnc(-c3ccco3)o2)no1	-0.2%
88	COc1ccc(C2=CC(c3ccc(F)cc3)n3nnnc3N2)cc1 (stereo not drawn)	-3.4%
89	N#Cc1c(N)nc2c(c1-c1ccco1)CCCCC2	-2.1%
90	CCCC(=O)NCCCc1nc2ccccc2n1C	9.4%
91	CCNc1ncc2ncc(=O)n(C[C@H]3CCCO3)c2n1	4.0%
92	COc1cccc(-n2nnnc2SCC(=O)N2CCCc3ccccc32)c1	15.7%
93	COc1ccc(Oc2ccc(S(=O)(=O)N3CCCCC3)cc2S(=O)(=O)N2CCCCC2)cc1	-5.6%
94	CC(C)OCC(O)CSc1ccccn1 (stereo not drawn)	-1.9%
95	O=c1oc2c3c(nn2c2ccccc12)CCCC3	1.0%
96	Oc1ccc(Cl)cc1C=Nc1cnc2ccccc2c1	1.0%[5.75 µM]
97	N#Cc1cccc(-c2cncnc2NCCc2cnc[nH]2)c1	?
98	O=C(COC(=O)c1ccccc1F)c1ccc(-n2nncc2-c2ccco2)cc1	-6.0%
99	Cc1cc(NC(=O)Cn2nc3c(cc2=O)CCCC3)ccc1Br	23.4%
100	Cc1ccc(-c2nnn(CCC(=O)NC3CCCC3)n2)cc1	28.4%
101	CS(=O)(=O)c1ccc(N2CCOCC2)c(S(C)(=O)=O)c1	11.4%
102	Cc1cccc(N2CCN(c3nnnn3-c3ccccc3)CC2C)c1 (stereo not drawn)	29.3%
103	O=C(COc1ccc(Cl)cc1)NCc1nnc(SCC(=O)N2CCCc3ccccc32)o1	77.4%
104	CCc1nc(C)c(-c2ccccc2)c(=O)[nH]1	-2.4%
105	O=S(=O)(Nc1ccc(-c2nc3ccccc3o2)cc1)c1ccccc1	-8.0%
106	O=C(Cn1c(=O)sc2ccccc21)Nc1ccc(S(=O)(=O)N2CCCCC2)cc1	6.31µM*
107	COC(=O)c1c(NC(=O)c2ccco2)sc2c1C(C(=O)OC)CC2 (stereo not drawn)	44.6%
108	Cc1ccc(CN(CC2CCCO2)C(=O)CN2C(=O)C(C(C)C)Oc3ccccc32)o1 (stereo not drawn)	94.8%
109	Cc1nc2ccccc2nc1OCC(=O)Nc1cc(C(F)(F)F)ccc1N1CCOCC1	98.9%
110	Cn1c(=O)oc2cc(S(=O)(=O)NCCN3CCCCCC3)ccc21	-5.3%
111	COc1ccc(Nc2nc3ccccc3c(=O)s2)c(OC)c1	-6.6%
112	c1csc(CSc2nnc3sc4ccccc4n23)c1	-10.2%
113	N#CCCCSc1nnc(-c2ccc(Cl)cc2)n1-c1ccccc1	84.5%
114	CCNc1ncc2nc(-c3ccc(F)cc3)c(=O)n(-c3ccccc3)c2n1	-4.3%
115	COC(=O)c1ccc(C(NC(=O)OCc2ccccc2)/C(F)=C/[C@@H](C)C(=O)NCc2nc3ccccc3s2)cc1 (stereo partly drawn)	22.8%
116	OC1(c2ccccc2)C/C(=N\n2cnnc2)C=C1c1ccccc1 (stereo not drawn)	17.9%
117	COc1cccc(NC(=O)C2C3C=CC4(O3)C2C(=O)N(C2CC2)C4C(=O)NC2CCCCC2C)c1 (stereo not drawn)	24.3%
118	Cc1c(-c2ccc(O)cc2)nn(-c2ccc(O)cc2)c1-c1ccc(OCCN2CCCCC2)cc1	-19.3%
119	CCOC(=O)N1CCN(C(=O)Cn2ncc3c2-c2ccccc2OC3)CC1	12.2%
120	O=C(Cn1c(-c2ccccn2)nc2ccccc21)NCCN1CCOCC1	-7.2%
121	Cc1ccc2c(c1)c1cccc3c1n2CCN3CCC(N)=O	94.7%
122	CCOc1ccc2nc(SCC(=O)N(C)C3CCS(=O)(=O)C3)[nH]c2c1 (stereo not drawn)	17.7%
123	NC1=NC(c2ccc(Cl)cc2)n2c(nc3ccccc32)N1 (stereo not drawn)	7.0%
124	CCC(NS(=O)(=O)c1ccc(OC)cc1)C(=O)O (stereo not drawn)	-0.6%
125	COc1cccc(OCC(=O)N2CCN(C)CC2)c1	-6.8%
126	COC(=O)C1ON2OC(C(=O)OC)C(C(=O)OC)C2C1CC(C)=O (stereo not drawn)	-5.6%
127	COC(=O)c1ccc(Oc2cc(C)nc(SC)n2)cc1	23.8%
128	CCOC(=O)c1cnn(-c2nc3sc4c(c3c(=O)[nH]2)CCCC4)c1N	-6.2%
129	CCN(CC(=O)NC1CCCCCC1)S(=O)(=O)c1ccccc1	30.0%

3 records picked at random from the list so far:
nr	mol	AmpC inh no det
111	COc1ccc(Nc2nc3ccccc3c(=O)s2)c(OC)c1	-6.6%
107	COC(=O)c1c(NC(=O)c2ccco2)sc2c1C(C(=O)OC)CC2 (stereo not drawn)	44.6%
100	Cc1ccc(-c2nnn(CCC(=O)NC3CCCC3)n2)cc1	28.4%

Bioassay records: PubChem, National Center for Advancing Translational Sciences (NCATS)

This is a subset, so the mix of outcomes need not match the whole.
